Assay outcomes from PubChem BioAssay.
GALR2 agonist – GALR2 receptor agonists, primary screen, cell-based; GALR2-expressing cells, agonist activation read-out; actives 0.48% (n = 140,000); activation, %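 (tested at 5 µM)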; Galanin receptor type 2 (Homo sapiens), O43603;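 active means above mean plus 3 SD of all compounds, about 5% in these data, not always enough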;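 further: 0% = vehicle buffer wells and 100% = reference agonist at full effect; tested in CHO reporter cells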
Target sequence (O43603 whole entry, looked up): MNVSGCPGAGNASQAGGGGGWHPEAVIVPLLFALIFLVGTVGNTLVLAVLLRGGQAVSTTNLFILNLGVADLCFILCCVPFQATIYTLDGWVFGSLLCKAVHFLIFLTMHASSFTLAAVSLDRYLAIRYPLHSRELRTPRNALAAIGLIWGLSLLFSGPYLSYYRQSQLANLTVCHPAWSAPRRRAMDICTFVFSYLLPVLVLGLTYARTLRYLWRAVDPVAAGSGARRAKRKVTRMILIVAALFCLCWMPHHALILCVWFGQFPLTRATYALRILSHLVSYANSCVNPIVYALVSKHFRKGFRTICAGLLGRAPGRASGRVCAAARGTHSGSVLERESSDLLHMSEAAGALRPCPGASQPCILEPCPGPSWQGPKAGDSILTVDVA
RGS16-Gao – modulators of RGS16 binding to Galphao, primary screen, biochemical, human proteins, multiplexed bead flow cytometry | Regulator of G-protein signaling 16 (Homo sapiens) + Guanine nucleotide-binding protein … | bead-based flow cytometry RGS16-Galphao binding, fluorescence; actives lie on both sides | binding response (% of control), % at 10 µM | actives 0.38% (n = 220,000);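 active means below 25% or above 175%, edge rows of some plates excepted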;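 further: Galphao activated by GDP with aluminum fluoride before binding; 100% = wells without compound and 0% = beads without RGS; some results beyond the cut were filed as inactive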
Target sequence (O15492 whole entry, looked up): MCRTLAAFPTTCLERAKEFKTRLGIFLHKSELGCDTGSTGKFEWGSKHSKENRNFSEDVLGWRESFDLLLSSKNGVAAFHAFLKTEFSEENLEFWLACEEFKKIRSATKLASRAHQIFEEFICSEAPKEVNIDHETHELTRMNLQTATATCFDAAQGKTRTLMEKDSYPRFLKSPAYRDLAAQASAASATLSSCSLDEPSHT
Target sequence (P09471 whole entry, looked up): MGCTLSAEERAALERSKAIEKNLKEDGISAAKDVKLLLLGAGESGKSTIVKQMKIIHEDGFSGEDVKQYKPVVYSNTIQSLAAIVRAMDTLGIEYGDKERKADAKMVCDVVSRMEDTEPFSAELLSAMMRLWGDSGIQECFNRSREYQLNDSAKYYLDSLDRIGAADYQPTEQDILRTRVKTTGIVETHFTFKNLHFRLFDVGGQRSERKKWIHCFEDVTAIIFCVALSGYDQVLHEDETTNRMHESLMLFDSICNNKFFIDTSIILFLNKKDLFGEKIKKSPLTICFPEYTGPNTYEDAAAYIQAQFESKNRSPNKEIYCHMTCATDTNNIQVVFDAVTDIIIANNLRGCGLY
HSV augment – enhancers of HSV replication in host cells, fold increase, host cell viability; maximum fold increase; actives 0.005% (n = 220,000); HSV replication augmentation in cells;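 active means peak rise of 1.5-fold or more in the series; inconclusive means self-fluorescent or not available for retest; tested in PC3 cells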;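 further: first round at 10 µM; read as green reporter fluorescence; hits show the peak of a series up to 25 µM; 1 = signal of infected wells without compound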
INS promoter inh – inhibitors of insulin promoter-driven GFP, primary screen, imaging, TRM-6 cells (human fetal islet line), eGFP reporter, cell count | reporter expression induced with tamoxifen | inhibition, % at 2 µM | actives 0.9% (n = 130,000) | AID 1273, 2008;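 active means inhibition above the mean plus 3 SD, with well images judged a real hit on visual review, cut at about 60% in these data, passing the limit was not always enough; inconclusive means inhibition over the cutoff but images rejected on review; inactive means inhibition not above the cutoff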
PKD1 kinase inh – inhibitors of human PKD1 kinase, biochemical, fluorescence polarization; Serine/threonine-protein kinase D1 (Homo sapiens), Q15139; actives 0.056% (n = 200,000); inhibition, %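 (about 10 µM by stock and volumes)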; PKD1 kinase fluorescence polarization assay;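 active means inhibition of 50% or more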;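 further: controls were vehicle for no effect and a reference inhibitor for full effect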
INS promoter inh cell count – further read-out of INS promoter inh, marked with its call; normalized cell count, %; measured here: cell count, toxicity; reference of the scale not given here;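 cells exposed to compound for 48 h; stained nuclei by imaging scaled within each plate; lower means fewer cells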
HSV augment primary fold – recorded beside HSV augment, whose call it bears; fold increase; compound at 10 µM; measured here: primary screen fold increase 10 uM; tested in PC3 cells;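 GFP signal in the first replicate; 1 = infected wells without compound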
An asterisk follows results filed as active; i = inactive; ? = inconclusive; . = not tested or not shown.

entry	canonical_smiles	GALR2 agonist	RGS16-Gao	HSV augment	HSV augment primary fold	INS promoter inh	INS promoter inh cell count	PKD1 kinase inh
1	Cc1cccc(C)c1NC(=O)C(NC(=O)c1ccccn1)c1ccc([N+](=O)[O-])cc1 (centres undefined)	-2.4	103.8	i	0.987	6.2	90.5	-3.6
2	O=C(NC1CCCCCC1)c1c(F)c(F)c(F)c(F)c1F	-0.9	97.5	i	1.02	.	.	-4.5
3	COc1ccc(-c2nc(CCl)cs2)cc1OC	.	97.4	i	0.98	16.7	111.7	-2.4
4	COc1ccc(-c2noc(CSc3nc(N)c(-c4ccccc4)c(=O)[nH]3)n2)cc1	-0.4	96.4	i	0.96	.	.	-7.2
5	Nc1ccc(-c2nc3c(Cl)c(N)ccc3[nH]2)cc1	-1.4	97.0	i	0.89	38.5	106.2	-5.4
6	COc1cccc(NC(=O)Cc2cn(C)c3ccccc23)c1	-2.1	102.5	i	0.95	20.7	61.2	-3.2
7	O=C(NC1CCCC1)C1CCN(S(=O)(=O)N2CCCCC2)CC1	-0.8	119.7	.	.	.	.	4.4
8	Cc1cc(F)ccc1S(=O)(=O)Nc1ccccc1C(=O)NCc1ccccn1	.	102.1	i	1	.	.	-5.0
9	Cn1c(SCC(=O)NC2CCCCC2)nnc1-c1cccc(N)c1	1.2	68.7	i	0.98	-50.0	120.5	1.0
10	CN1CCN(c2ccc([N+](=O)[O-])cc2C(=O)c2ccccc2)CC1	-0.5	95.3	i	0.86	0.0	80.0	-4.2
11	Cc1c(Br)cc(C(=O)N2CCCCCC2)c(C)c1C	-1.6	.	.	.	-33.3	117.2	0.1
12	CCN1CCc2c(C#N)c(N3CCOCC3)nc(NCc3ccccc3)c2C1	-0.4	100.2	.	.	-42.9	54.8	6.1
13	CC(=O)NC(NC(=S)Nc1ccccc1Br)C(Cl)(Cl)Cl (centres undefined)	.	91.8	i	0.94	-50.0	91.3	-3.6
14	C/C(=N\NC(=O)c1ccncc1)c1cc2ccccc2oc1=O	-0.1	45.7	i	0.93	-2.9	102.1	-6.0
15	CCOC(=O)N/N=C(\C)c1ccccc1OC(F)F	-2.4	102.7	i	0.91	35.7	102.9	-3.7
16	S=c1[nH]nc(-c2cccc(Cl)c2)n1CCN1CCCCC1	-0.5	108.1	.	.	-83.3	97.2	-5.3
17	O=C(NCCCN1CCCC1=O)c1ccc(Cl)c(NS(=O)(=O)c2ccc(F)cc2)c1	0.1	101.7	i	0.993	.	.	1.6
18	O=C(N/N=C/c1ccc([N+](=O)[O-])s1)c1ccccc1	.	68.4	i	0.74	-57.1	78.3	-6.4
19	CC(C)[C@H](NC(=O)NCc1ccc(Cl)cc1)C(=O)O	-1.1	100.6	i	0.73	-20.7	79.4	-1.3
20	CCC(C)(C)n1nnnc1C(c1cccs1)N1CCc2ccccc21 (centres undefined)	-1.2	100.0	i	0.8	-66.7	152.2	-8.4
21	O=C(CNC(=O)c1cccs1)NCC(=O)OCc1ccc(Cl)cc1Cl	-3.6	102.2	i	1.01	.	.	-9.4
22	CCC(=O)Nc1cc(C(F)(F)F)ccc1N1CCOCC1	-1.2	127.6	i	0.99	36.4	84.1	3.1
23	Cc1cc(N(C)C)c(C#N)c(NCc2ccccc2)n1	-3.4	59.9	i	0.99	.	.	4.1
24	CC(Nc1ccccc1)c1cc(Cl)ccc1O (centres undefined)	-1.8	101.7	i	1.01	-93.0	98.9	-2.5
25	CCOC(=O)N1CCN(CC(=O)Nc2cccc(Br)c2)CC1	-0.8	106.5	i	0.93	18.6	83.6	2.1
26	O=C(Nc1ccc(Br)cn1)C1CCN(S(=O)(=O)c2cccs2)CC1	.	94.7	i	1.21	.	.	.
27	O=C(NCc1ccccc1)C1=C[C@@H](C2CC2)C[C@@H](OCc2ccc(CO)cc2)O1	.	97.3	i	0.75	.	.	-0.4
28	COc1ccc(NC(=S)N2CCN(C(=O)c3ccco3)CC2)c(OC)c1	-0.7	52.7	i	1.18	16.7	90.7	-11.1
29	O=C(/C=C/c1cccc([N+](=O)[O-])c1)Nc1cccc(NC(=O)c2ccco2)c1	-0.4	240.9	.	.	.	.	-9.4
30	CC1=[N+](C)N(c2ccccc2)C(=O)C1N=C/C=C/c1ccccc1 (centres undefined)	.	95.5	i	1.04	.	.	.
31	COc1cccc(N(C(=O)c2ccco2)C(C(=O)NC2CCCC2)c2cccnc2)c1 (centres undefined)	-3.2	103.9	i	0.84	.	.	3.0
32	COC(=O)c1ccc(COc2cccc(OC)c2)o1	-0.9	121.9	i	1.03	-276.2	37.4	2.8
33	CCn1nc2cc(C(=O)NCC34CC5CC(CC(C5)C3)C4)ccc2c1OC	-1.4	110.2	i	1.12	.	.	-5.1
34	C=CC(C)Sc1nc2c(c(=O)n(C)c(=O)n2C)n1Cc1ccccc1Cl (centres undefined)	-0.6	113.3	i	0.94	.	.	-8.8
35	Cc1ccc(N2C(=O)c3n[nH]c(C)c3C2c2ccccn2)cc1 (centres undefined)	-0.5	99.4	.	.	57.1	84.0	-1.5
36	COc1ccc(S(=O)(=O)Nc2ccc(O)c(Sc3nc4ccccc4s3)c2)cc1	-0.8	156.9	i	0.91	18.5	82.2	-6.2
37	O=C(O)C1CCCN(S(=O)(=O)c2ccc(Br)s2)C1 (centres undefined)	.	105.8	i	0.93	33.3	154.9	5.3
38	COc1ccc(/C=C/C(=O)Nc2ccccc2C(=O)N2CCCC2)cc1	-1.6	98.9	i	0.85	22.9	172.8	-5.1
39	COc1ccc(OC)c(NC(=O)Cc2coc3ccc4ccccc4c23)c1	-2.1	101.2	i	0.97	6.7	100.0	-7.2
40	CC(=O)NC1C(OCCOc2ccc(Cl)cc2Cl)OC(COC(C)=O)C(OC(C)=O)C1OC(C)=O (centres undefined)	-2.1	102.0	.	.	.	.	-6.4
41	CCCOc1ccccc1C1CC(=O)NC(C)=C1C(=O)OCC(C)C (centres undefined)	-0.1	84.1	i	1.01	-24.2	100.6	11.6
42	COc1cc(OC)c(OC)cc1/C=N/Nc1ncnc2c1[nH]c1ccc(C)cc12	.	94.8	i	0.96	.	.	.
43	COC(=O)c1ccccc1N/C=C1\CCc2c(c(C)nn2-c2ccccn2)C1=O	-0.3	74.7	i	0.99	.	.	21.1
44	CSc1nc2ccc3nc(NC(=O)c4cccs4)sc3c2s1	-1.9	102.7	i	0.91	-58.3	94.4	-6.1
45	COc1ccc(/C=N/NC(=O)c2nonc2C)cc1	-0.2	110.6	i	0.9	-4.5	109.2	-9.1
46	Cc1ccc(SCc2nc3ccccc3n2CC(=O)Nc2c(C)cccc2C)cc1	-2.2	95.9	i	0.95	.	.	5.2
47	O=C(CCn1ccc2ccccc21)Nc1ccc(N2CCOCC2)cc1	-1.8	97.9	i	0.96	.	.	-4.0
48	O=Cc1nc(-c2ccc(Cl)cc2)n2ccccc12	-0.1	100.2	i	1.19	.	.	4.3
49	COCCN(CCOC)C(=S)Nc1cc(S(=O)(=O)N(C)C)ccc1C	.	103.2	i	0.97	.	.	-6.4
50	CCN1CCN(Cc2ccc(NC(=O)c3ccc(C)c(NC(=O)C(=O)c4c[nH]c5ccccc45)c3)cc2C(F)(F)F)CC1	.	105.6	i	0.58	.	.	.

Shown field by field: 2 of the compounds above.
(13) CC(=O)NC(NC(=S)Nc1ccccc1Br)C(Cl)(Cl)Cl (centres undefined)
  GALR2 agonist: .
  RGS16-Gao: 91.8
  HSV augment: i
  HSV augment primary fold: 0.94
  INS promoter inh: -50.0
  INS promoter inh cell count: 91.3
  PKD1 kinase inh: -3.6

(14) C/C(=N\NC(=O)c1ccncc1)c1cc2ccccc2oc1=O
  GALR2 agonist: -0.1
  RGS16-Gao: 45.7
  HSV augment: i
  HSV augment primary fold: 0.93
  INS promoter inh: -2.9
  INS promoter inh cell count: 102.1
  PKD1 kinase inh: -6.0

Some values from above:
COc1ccc(/C=N/NC(=O)c2nonc2C)cc1 in RGS16-Gao: 110.6
COc1ccc(OC)c(NC(=O)Cc2coc3ccc4ccccc4c23)c1 in INS promoter inh: 6.7

Remaining list, next part
entry	canonical_smiles	GALR2 agonist	RGS16-Gao	HSV augment	HSV augment primary fold	INS promoter inh	INS promoter inh cell count	PKD1 kinase inh
51	Clc1cccc(N2CCN(c3ncnc4nc[nH]c34)CC2)c1	.	101.6	i	0.81	.	.	.
52	CC12CC(NC(=O)N1CCc1ccccc1)c1ccccc1O2 (centres undefined)	-1.6	100.0	i	0.87	.	.	-6.5
53	COC(=O)Cn1c2c(c3cc(C)ccc31)CCCC2NC(C)c1ccccc1 (centres undefined)	.	107.6	i	0.82	.	.	.
54	C1=C(CCNc2ncnc3nc[nH]c23)CCCC1	-1.0	92.4	i	1.01	-42.9	106.9	-2.0
55	O=C(Nc1ccc(Cl)cn1)c1cnn2cccnc12	-0.3	101.0	i	0.95	37.5	171.9	-4.5
56	N#C/C(=C(/O)COC(=O)COc1ccc(Cl)cc1)c1nc2ccccc2[nH]1	-0.7	103.6	i	0.98	.	.	-6.0
57	O=C1NC2(CCC3(CC2)OCCO3)NN1c1ccccc1	.	113.3	i	0.93	63.6	116.5	-5.2
58	Cc1c(C(=O)NN)sc(-c2ccccc2)c1C#N	.	103.3	i	0.85	12.5	113.9	-0.9
59	CCCn1nnc(NC(=O)c2cccc(OCc3ccccc3)c2)n1	-1.4	98.3	i	0.897	42.9	133.6	-3.6
60	Cn1cnc2c1c(=O)n(Cc1ccccc1)c(=O)n2C	.	71.2	i	0.86	.	.	0.7
61	O=C(/C=C/c1ccc(S(=O)(=O)NCc2ccco2)cc1)NCc1cccc(Cl)c1	-1.3	158.1	i	0.83	-34.5	86.5	8.8
62	Cc1noc(C)c1C(=O)Nc1sc(C)c(C)c1C#N	-2.7	104.0	?	.	-7.1	90.7	6.7
63	Cc1cccc(Nc2ncccc2C(=O)O)c1C	-3.3	99.3	i	1	.	.	-13.2
64	CCNC(=O)CN1C(=O)NC(Cc2ccccc2)(Cc2ccccc2)C1=O	.	105.2	i	1	.	.	-4.3
65	CC(=O)c1c(C(C)=O)c(C)n(-c2cccc3cccnc23)c1C	.	108.4	i	1.01	.	.	-0.7
66	O=C(Nc1nc2ccccc2s1)c1cnccn1	-2.0	95.1	i	0.95	24.3	108.7	3.8
67	COc1ccc(CCC(=O)Nc2cc([N+](=O)[O-])ccc2OC)cc1	0.0	85.5	i	1.07	37.9	98.5	-0.5
68	COc1cc(NC(=O)c2cc(-c3cccc(O)c3)on2)cc(OC)c1OC	-2.5	101.0	i	0.59	.	.	-8.4
69	COC(=O)C1=C(C)Nc2ncnn2C1c1ccco1 (centres undefined)	-2.8	105.5	i	0.927	50.0	154.5	-4.4
70	O=C1c2ccncc2C(=O)N1C1CCCCC1	-1.4	100.2	i	0.99	.	.	-10.2
71	C=CCn1cc(-c2ccccc2)cc(C#N)c1=O	-0.3	95.5	i	1.01	-25.0	84.9	-6.8
72	COC(=O)c1ccc(NC(=O)c2ccccc2NS(C)(=O)=O)cc1	-1.2	79.5	i	0.97	-231.2	78.5	-4.6
73	Cc1ccc(OCC(=O)c2c[nH]c3ccccc23)c([N+](=O)[O-])n1	.	103.2	i	1.04	.	.	-3.8
74	COc1ccc(-n2nc(C(=O)N3CCN(c4ccc(F)cc4)CC3)c3ccccc3c2=O)c(OC)c1	-0.3	90.0	i	0.96	.	.	-19.7
75	Cc1ccc(NC(=S)N(CCC(C)C)C(C)c2ccncc2)c(Cl)c1 (centres undefined)	.	104.9	i	0.89	.	.	.
76	Cc1cc(C)c(S(=O)(=O)N2C=CC(C(F)(F)F)=NCC2)c(C)c1	-0.7	130.4	i	1.01	-46.7	96.4	-0.8
77	CCOc1ccc(N(C(C)=O)c2nc(C)cc(C)c2C#N)cc1	-3.7	32.1	i	0.83	-26.7	88.2	-6.0
78	O=S(=O)(Nc1nc2ccccc2s1)c1ccc(Cl)s1	-2.7	103.1	i	0.8	-14.3	25.7	-4.6
79	COc1ccc2[nH]c(C)c(CCNC(=S)Nc3cc(C)ccc3C)c2c1	-1.7	88.5	.	.	21.9	106.1	-4.7
80	COc1ccc(NS(=O)(=O)c2cc(NC(=O)Cn3cnc4c3c(=O)n(C)c(=O)n4C)ccc2C)cc1	.	101.2	i	0.86	.	.	1.2
81	O=C(Cc1cccc2ccccc12)N/N=C/c1ccc2cccc(O)c2n1	.	100.3	i	0.9	.	.	.

Rows are unselected (roughly 1.3% active in at least one column).
